# From PubChem
# UUG fidelity: alters start codon recognition fidelity in yeast. AID 602363. S. cerevisiae UUG-firefly luciferase reporter, luminescence/redox ratio. 350,000 tested, 0.13% active. activity score, % at 18.7 µM;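 active = replicate mean at a twofold rise or more, about +100% in these data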;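 note: firefly luciferase made from a UUG start codon reports start codon fidelity; reporter light over untreated wells divided by growth signal over untreated wells; some hits fall short of that in this replicate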
# Env fusion inh: blocks HIV Env-driven cell-cell fusion; HeLa-JRFL Env/CEM21 cell fusion, luciferase; inhibition, % at 12.3 µM; 360,000 tested, 1.1% active; AID 651610;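 active = mean replicate inhibition score of at least 50 and every replicate individually at or above 50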;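 note: 0% = plate neutral controls and 100% = maraviroc near 300 nM; one replicate is shown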
# Active calls of the source: *; [ ] = another dose, or the depositor's remark.
# Sample of the layout (9 entries):
SMILES,UUG fidelity,Env fusion inh
C[C@@H]1CN([C@H](C)CO)S(=O)(=O)c2ccc(C#CC3CC3)cc2O[C@H]1CN(C)C(=O)C1CCCCC1,11,19[16.7 µM]
C[C@H]1CN([C@@H](C)CO)C(=O)c2cccc(NS(=O)(=O)c3cn(C)cn3)c2O[C@@H]1CN(C)Cc1ccc2c(c1)OCO2,-3,0[16.7 µM]
O=C(N[C@@H]1C=C[C@H](CC(=O)N2CCCCC2)O[C@@H]1CO)c1cccc(F)c1,-14,2[16.7 µM]
C[C@H](CO)N1C[C@H](C)[C@H](CN(C)C(=O)c2ccccc2)Oc2cc(C#CC3(O)CCCC3)ccc2S1(=O)=O,2,-13[16.7 µM]
C[C@@H]1CCCCO[C@H](CN(C)C(=O)Nc2ccc(C(F)(F)F)cc2)[C@H](C)CN([C@@H](C)CO)C(=O)c2cc(NC(=O)Nc3ccc4c(c3)OCO4)ccc2O1,-17,37[16.7 µM]
C[C@@H]1CN([C@H](C)CO)C(=O)Cc2cc(NC(=O)Cc3ccccc3)ccc2O[C@@H]1CN(C)Cc1ccccc1,-14,4[16.7 µM]
COc1ccc(S(=O)(=O)N(C)C[C@@H]2OCCCC[C@@H](C)Oc3ccc(NC(=O)c4ccncc4)cc3C(=O)N([C@H](C)CO)C[C@@H]2C)cc1,12,3[16.7 µM]
O=C(C[C@H]1CC[C@H](NS(=O)(=O)c2ccccc2F)[C@@H](CO)O1)NCCCN1CCOCC1,-1,3[16.7 µM]
COc1ccc(S(=O)(=O)Nc2ccc3c(c2)CC(=O)N([C@H](C)CO)C[C@H](C)[C@H](CN(C)Cc2ccc(-c4ccccc4)cc2)O3)cc1,4,12[16.7 µM]

# Results (from the top)
SMILES,UUG fidelity,Env fusion inh
C[C@@H]1CN([C@H](C)CO)S(=O)(=O)c2ccc(C#CC3CC3)cc2O[C@H]1CN(C)C(=O)C1CCCCC1,11,19[16.7 µM]
C[C@H]1CN([C@@H](C)CO)C(=O)c2cccc(NS(=O)(=O)c3cn(C)cn3)c2O[C@@H]1CN(C)Cc1ccc2c(c1)OCO2,-3,0[16.7 µM]
O=C(N[C@@H]1C=C[C@H](CC(=O)N2CCCCC2)O[C@@H]1CO)c1cccc(F)c1,-14,2[16.7 µM]
C[C@H](CO)N1C[C@H](C)[C@H](CN(C)C(=O)c2ccccc2)Oc2cc(C#CC3(O)CCCC3)ccc2S1(=O)=O,2,-13[16.7 µM]
C[C@@H]1CCCCO[C@H](CN(C)C(=O)Nc2ccc(C(F)(F)F)cc2)[C@H](C)CN([C@@H](C)CO)C(=O)c2cc(NC(=O)Nc3ccc4c(c3)OCO4)ccc2O1,-17,37[16.7 µM]
C[C@@H]1CN([C@H](C)CO)C(=O)Cc2cc(NC(=O)Cc3ccccc3)ccc2O[C@@H]1CN(C)Cc1ccccc1,-14,4[16.7 µM]
COc1ccc(S(=O)(=O)N(C)C[C@@H]2OCCCC[C@@H](C)Oc3ccc(NC(=O)c4ccncc4)cc3C(=O)N([C@H](C)CO)C[C@@H]2C)cc1,12,3[16.7 µM]
O=C(C[C@H]1CC[C@H](NS(=O)(=O)c2ccccc2F)[C@@H](CO)O1)NCCCN1CCOCC1,-1,3[16.7 µM]
COc1ccc(S(=O)(=O)Nc2ccc3c(c2)CC(=O)N([C@H](C)CO)C[C@H](C)[C@H](CN(C)Cc2ccc(-c4ccccc4)cc2)O3)cc1,4,12[16.7 µM]
CCc1cnc(N2[C@H](C#N)[C@@H](c3ccc(C#Cc4ccccc4F)cc3)[C@H]2CO)s1,13,4[16.7 µM]
Cc1noc(C)c1S(=O)(=O)Nc1ccc2c(c1)C(=O)N([C@H](C)CO)C[C@H](C)[C@H](CN(C)C(=O)C1CCCCC1)OCCCC[C@H](C)O2,16,-73[16.7 µM]
O=C(C[C@@H]1CC[C@@H](NC(=O)C2CCC2)[C@H](CO)O1)NCc1ccccc1Cl,-3,-1[16.7 µM]
COC(=O)c1c2oc(c1C(=O)OC)C(=O)N[C@@H](Cc1ccccc1)Cn1cc(nn1)CNC(=O)[C@@H](Cc1ccccc1)NC(=O)N[C@@H](CO)CC2,116*,14[16.7 µM]
CCCC(=O)Nc1ccc2c(c1)C(=O)N(C)[C@@H]1CC[C@@H](CC(=O)NCCCN(C)C)O[C@H]1CO2,-16,-21[16.7 µM]
CC(C)NC(=O)Nc1ccc2c(c1)C(=O)N([C@@H](C)CO)C[C@H](C)[C@H](CN(C)Cc1ccccc1)O2,-2,-3[16.7 µM]
Cc1ccc(S(=O)(=O)N(C)C[C@@H]2Oc3c(NC(=O)c4ccncc4)cccc3C(=O)N([C@@H](C)CO)C[C@H]2C)cc1,-11,-11[16.7 µM]
CO[C@H]1CN(C)C(=O)c2cc(NS(=O)(=O)CC(F)(F)F)ccc2OC[C@@H](C)N(C)C[C@@H]1C,-5,7[16.7 µM]
C[C@@H]1CN([C@H](C)CO)C(=O)c2cc(C#CC3(O)CCCC3)cnc2O[C@@H]1CN(C)C(=O)Cc1ccccc1,1,13[16.7 µM]
C[C@@H]1CCCCO[C@H](CN(C)Cc2ccc(C(=O)Nc3ccccc3N)cc2)[C@@H](C)CN([C@H](C)CO)C(=O)c2cc(NS(=O)(=O)c3cn(C)cn3)ccc2O1,-1,1[16.7 µM]
C[C@H]1CN([C@@H](C)CO)C(=O)c2cc(/C=C/c3ccccc3)cnc2O[C@H]1CN(C)Cc1cccnc1,-6,10[16.7 µM]
C[C@@H]1CCCCO[C@H](CN(C)S(=O)(=O)c2ccccc2)[C@H](C)CN([C@H](C)CO)C(=O)c2cc(NS(=O)(=O)c3cn(C)cn3)ccc2O1,-2,-11[16.7 µM]
CO[C@@H]1CN(C)C(=O)c2cc(NS(C)(=O)=O)ccc2OC[C@H](C)N(Cc2ccccc2)C[C@H]1C,10,0[16.7 µM]
C[C@@H]1CN([C@H](C)CO)S(=O)(=O)c2ccc(Br)cc2O[C@H]1CN(C)Cc1ccccc1,-8,-4[16.7 µM]
C[C@@H]1CN([C@H](C)CO)C(=O)c2cc(NC(=O)NC3CCCCC3)ccc2O[C@@H](C)CCCCO[C@H]1CN(C)Cc1ccncc1,-5,15[16.7 µM]
O=C(Nc1ccccc1)N[C@@H]1CC[C@@H](CCn2cc(C3(O)CCCC3)nn2)O[C@@H]1CO,-4,24[16.7 µM]
CCC(=O)N(C)C[C@@H]1Oc2ncc(-c3ccccc3F)cc2C(=O)N([C@@H](C)CO)C[C@@H]1C,-1,-11[16.7 µM]
C[C@H]1CCCCO[C@@H](CN(C)Cc2ccccc2)[C@@H](C)CN([C@@H](C)CO)C(=O)c2cc(NS(C)(=O)=O)ccc2O1,27,2[16.7 µM]
CN(C)CC(=O)Nc1ccc2c(c1)[C@@H]1C[C@H](CC(=O)NCc3ccccn3)O[C@H](CO)[C@@H]1O2,-21,16[16.7 µM]
C[C@@H]1CN([C@H](C)CO)C(=O)Cc2cc(NC(=O)C3CC3)ccc2O[C@H]1CN(C)S(C)(=O)=O,-8,-25[16.7 µM]
O=C(Nc1ccccc1F)N[C@@H]1C=C[C@H](CC(=O)N2CCCCC2)O[C@@H]1CO,-6,19[16.7 µM]
Cc1ccccc1S(=O)(=O)NCC[C@@H]1CC[C@H](NC(=O)C2CCOCC2)[C@H](CO)O1,14,-11[16.7 µM]
CCC(=O)Nc1ccc2c(c1)C(=O)N(C)[C@H]1CC[C@@H](CC(=O)NCc3ccccc3)O[C@@H]1CO2,-11,6[16.7 µM]
C[C@H]1CN([C@@H](C)CO)C(=O)c2cccc(NC(=O)Nc3ccc4c(c3)OCO4)c2O[C@H]1CN(C)Cc1ccc(-c2ccccc2)cc1,13,-10[16.7 µM]
Cc1noc(C)c1S(=O)(=O)Nc1ccc2c(c1)CC(=O)N([C@@H](C)CO)C[C@@H](C)[C@@H](CN(C)S(=O)(=O)c1c(C)noc1C)O2,20,-14[16.7 µM]
O=C(Nc1ccc(F)cc1)N[C@H]1CC[C@H](CCn2cc(-c3ccc(F)cc3)nn2)O[C@@H]1CO,-16,8[16.7 µM]
C[C@H]1CN([C@@H](C)CO)S(=O)(=O)c2ccc(-c3cccc(C(=O)N(C)C)c3)cc2O[C@@H]1CN(C)C(=O)Nc1ccc(F)cc1,111*,-20[16.7 µM]
C[C@@H]1CN([C@@H](C)CO)C(=O)c2cc(NC(=O)C3CC3)ccc2O[C@H]1CN(C)Cc1ccc(Oc2ccccc2)cc1,3,-1[16.7 µM]
C[C@H]1CCCCO[C@H](CN(C)Cc2ccc(C(=O)O)cc2)[C@@H](C)CN([C@@H](C)CO)C(=O)c2cc(NC(=O)Cc3ccccc3)ccc2O1,12,-9[16.7 µM]
CNC[C@@H]1Oc2cc(C#Cc3cccc(F)c3)ccc2S(=O)(=O)N([C@@H](C)CO)C[C@H]1C,0,2[16.7 µM]
COc1ccc(OC(=O)N(C)C[C@@H]2OCc3cn(nn3)CCCC(=O)N([C@@H](C)CO)C[C@@H]2C)cc1,11,15[16.7 µM]
COc1ccc(S(=O)(=O)N(C)C[C@@H]2OCCCC[C@@H](C)Oc3ccc(NC(=O)Nc4c(C)noc4C)cc3C(=O)N([C@@H](C)CO)C[C@H]2C)cc1,9,-16[16.7 µM]
CO[C@@H]1CN(C)C(=O)c2cc(NC(=O)c3ccccc3F)ccc2OC[C@H](C)N(C)C[C@H]1C,-10,2[16.7 µM]
COc1ccc(NC(=O)N(C)C[C@H]2Oc3ccc(NC(=O)C4CC4)cc3CC(=O)N([C@H](C)CO)C[C@@H]2C)cc1,24,-5[16.7 µM]
C[C@@H]1CN([C@H](C)CO)C(=O)c2cc(NS(=O)(=O)c3ccccc3)ccc2O[C@@H](C)CCCCO[C@@H]1CN(C)CC1CCCCC1,38,4[16.7 µM]
COc1ccccc1NC(=O)N(C)C[C@@H]1Oc2cc(Br)ccc2S(=O)(=O)N([C@H](C)CO)C[C@@H]1C,24,-3[16.7 µM]
CCCC#Cc1ccc2c(c1)O[C@H](CN(C)Cc1cccnc1)[C@@H](C)CN([C@@H](C)CO)S2(=O)=O,-9,4[16.7 µM]
C[C@H]1CN([C@@H](C)CO)C(=O)c2cc(C3=CCCC3)cnc2O[C@@H]1CN(C)C(=O)c1ccccn1,-7,-13[16.7 µM]
O=C(C[C@@H]1C=C[C@@H](NS(=O)(=O)c2ccc(F)cc2)[C@H](CO)O1)N1CCN(c2ccccc2)CC1,0,10[16.7 µM]
CN1CCN(C(=O)C[C@@H]2CC[C@H]3[C@@H](COc4ccc(NC(=O)c5ccc(F)c(F)c5)cc4C(=O)N3C)O2)CC1,-8,-2[16.7 µM]
COc1ccccc1-c1cnc2c(c1)C(=O)N([C@@H](C)CO)C[C@H](C)[C@@H](CN(C)C(=O)c1ccncc1)O2,-4,2[16.7 µM]
# Other results:
SMILES,UUG fidelity,Env fusion inh
C[C@H](CO)N1C[C@H](C)[C@@H](CN(C)Cc2ccccn2)Oc2ncc(C3=CCCC3)cc2C1=O,-34,9[16.7 µM]
COc1ccc(NC(=O)Nc2ccc3c(c2)CC(=O)N([C@@H](C)CO)C[C@H](C)[C@H](CN(C)C(=O)Nc2ccc(OC)cc2)O3)cc1,3,6[16.7 µM]
C[C@H]1CN([C@@H](C)CO)S(=O)(=O)c2ccc(C#Cc3ccc(F)cc3)cc2O[C@@H]1CN(C)C,1,39[16.7 µM]
C[C@H]1CN([C@@H](C)CO)S(=O)(=O)c2ccc(C#Cc3ccc(F)cc3)cc2O[C@@H]1CN(C)S(=O)(=O)c1cn(C)cn1,4,18[16.7 µM]
COc1ccc(S(=O)(=O)N[C@H]2CC[C@H](CCNC(=O)CN3CCOCC3)O[C@@H]2CO)cc1,0,-16[16.7 µM]
C[C@@H]1CN([C@H](C)CO)S(=O)(=O)c2ccc(-c3cncnc3)cc2O[C@H]1CN(C)Cc1cncnc1,-10,23[16.7 µM]
O=C(C[C@H]1CC[C@H]2[C@@H](COC[C@@H](O)CN2S(=O)(=O)c2cccc(F)c2)O1)NCc1ccncn1,0,-10[16.7 µM]
CC(C)CC#Cc1ccc2c(c1)O[C@@H](CN(C)C(=O)Nc1ccccc1)[C@H](C)CN([C@@H](C)CO)S2(=O)=O,-10,-23[16.7 µM]
CCCNC(=O)C[C@H]1CC[C@H]2[C@H](COc3ccc(NC(=O)c4ccccc4)cc3C(=O)N2C)O1,10,2[16.7 µM]
COc1cccc(NC(=O)N(C)C[C@H]2Oc3cc(/C=C/c4ccccc4)ccc3S(=O)(=O)N([C@H](C)CO)C[C@@H]2C)c1,-10,0[16.7 µM]
O=C(C[C@@H]1CC[C@@H](NS(=O)(=O)c2ccc(F)cc2)[C@@H](CO)O1)NC1CCCCC1,-10,0[16.7 µM]
C[C@H](CO)N1C[C@H](C)[C@H](CN(C)C(=O)Nc2ccccc2)Oc2c(NC(=O)Nc3ccc(C(F)(F)F)cc3)cccc2C1=O,4,-11[16.7 µM]
COCC(=O)Nc1ccc2c(c1)[C@@H]1C[C@@H](CC(=O)NCc3cccc(F)c3)O[C@@H](CO)[C@@H]1O2,-7,2[16.7 µM]
O=C(O)C[C@@H]1C[C@H]2c3cc(NC(=O)NC4CCCC4)ccc3O[C@H]2[C@H](CO)O1,-5,-5[16.7 µM]
C[C@H]1CN([C@@H](C)CO)C(=O)c2cc(C#CCN(C)C)cnc2O[C@@H]1CN(C)Cc1ccc(-c2ccccc2)cc1,-2,-14[16.7 µM]
C[C@@H]1CN([C@H](C)CO)C(=O)c2cc(NC(=O)C3CCCCC3)ccc2O[C@@H]1CN(C)S(=O)(=O)c1ccc(Cl)cc1,5,4[16.7 µM]
COc1ccc(S(=O)(=O)Nc2ccc3c(c2)C(=O)N([C@H](C)CO)C[C@H](C)[C@H](CN(C)C(=O)CCC(F)(F)F)OCCCC[C@@H](C)O3)cc1,6,-7[16.7 µM]
C/C=C/c1ccc2c(c1)O[C@H](CN(C)C(=O)CN1CCOCC1)[C@H](C)CN([C@H](C)CO)S2(=O)=O,13,9[16.7 µM]
COc1ccc(CN(C)C[C@H]2OCCCC[C@H](C)Oc3ccc(NS(=O)(=O)c4ccc(C)cc4)cc3C(=O)N([C@H](C)CO)C[C@@H]2C)cc1,37,-31[16.7 µM]

# The list is partial; rates above refer to the full screens.
